Source: PubChem BioAssay (several laboratories)
MT1-MMP act inh = blocks activation of human MT1-MMP; GFP/RFP ratio change, % at 20 µM; AID 651647; HT1080 RFP-PRO-GFP cells, GFP/RFP ratio fluorescence, overnight; percent of plate control window, DMSO zero; hit rate 0.061% among 360,000;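 active = GFP/RFP ratio change of at least 30% with cell ATP level not reduced by more than half and red fluorescence within 50% of control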; note: strong numbers were not always called active
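Test system: HT1080 RFP-PRO-GFP cells; Benchmarks: DMSO and RFP-L50D-GFP cell wells; Timing: cells overnight before dosing, compound overnight, 37 °C, 5% CO2; Compound: one 20 µM compound dose with 1% DMSO; Read-out: GFP/RFP fluorescence ratio.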
Env fusion inh = inhibitors of HIV Env-mediated cell fusion. AID 651610. HeLa-JRFL Env/CEM21 cell fusion, luciferase. inhibition, % at 12.3 µM. hit rate 1.1% among 360,000;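 active = mean replicate inhibition score of at least 50 and every replicate individually at or above 50; inconclusive = only one of the two criteria met; inactive = mean below 50 and not all replicates reaching 50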;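 note: 0% = plate neutral controls and 100% = maraviroc near 300 nM; one replicate is shown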
MT1-MMP act inh RFP = also measured in MT1-MMP act inh; calls as there; RFP signal change, %; measured here: RFP expression control read;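 0 = vehicle wells; hits needed this value within 50% of zero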
* hit, by the source's call; u = inconclusive. Not all compounds are listed (hit frequency here may not be typical).

The opening six entries, to show the layout:
SMILES	MT1-MMP act inh	MT1-MMP act inh RFP	Env fusion inh
COc1ccc(-c2cc(=O)c3c(C)cc(O)cc3o2)cc1	0	-8	-240
OCC(O)C1OCOC(C(O)CO)C1O (stereo unspecified)	-2	1	11
C[N+](=O)C1C(=O)Nc2ccccc21 (stereo unspecified)	11	8	-77
O=C(CSc1nnc(COc2ccc(Cl)cc2)o1)Nc1ccc(N2CCOCC2)cc1	7	0	0
COc1ccc(N2CCN(C(=O)c3cc(S(=O)(=O)N4CCCCCC4)ccc3OC)CC2)cc1	-8	-5	-4
O=C(NN=Cc1ccccc1O)C(O)(c1ccccc1)c1ccccc1	4	0	-7

The list itself (from the top)
SMILES	MT1-MMP act inh	MT1-MMP act inh RFP	Env fusion inh
COc1ccc(-c2cc(=O)c3c(C)cc(O)cc3o2)cc1	0	-8	-240
OCC(O)C1OCOC(C(O)CO)C1O (stereo unspecified)	-2	1	11
C[N+](=O)C1C(=O)Nc2ccccc21 (stereo unspecified)	11	8	-77
O=C(CSc1nnc(COc2ccc(Cl)cc2)o1)Nc1ccc(N2CCOCC2)cc1	7	0	0
COc1ccc(N2CCN(C(=O)c3cc(S(=O)(=O)N4CCCCCC4)ccc3OC)CC2)cc1	-8	-5	-4
O=C(NN=Cc1ccccc1O)C(O)(c1ccccc1)c1ccccc1	4	0	-7
O=C1CCCCCC(=O)[C@H](O)C[C@H](c2ccccc2)O1	2	5	2
Cc1cnc(C(=O)OCC(=O)Nc2cc(S(=O)(=O)N3CCOCC3)ccc2Cl)cn1	2	5	4
Cc1ccc(Cc2ccccc2C(=O)O)cc1	2	2	25
CCCCNC(=O)C1c2ccccc2OCC(=O)N1CCc1ccc(OC)c(OC)c1 (stereo unspecified)	1	3	-53
CC12CCCCC1C(C(N)=O)C(=O)O2 (stereo unspecified)	0	7	u
CCC(CC)C(=O)OCC(=O)C1(O)CCC2C3CCC4=CC(=O)CCC4(C)C3C(O)CC21C (stereo unspecified)	4	-3	-110
COC(=O)c1ccc(N2C(c3cc(OC)cc(OC)c3)=Cc3ccc(OC)cc3C2CC(=O)c2ccco2)cc1 (stereo unspecified)	1	-4	1
Cc1ncnc(N)c1CCCNc1ccccc1	4	-2	2
O=C(NC1CCCCC1)C1c2ccccc2OCC(=O)N1C1CC1 (stereo unspecified)	2	0	-36
CCC(=O)Nc1c(C#N)c2nc3ccccc3nc2n1-c1ccc(C)cc1	-12	-6	17
CCOC(=O)/C=C/c1cccc(C)c1O	3	4	-62
COc1ccc(NC(=O)CC2C(=O)Nc3ccccc3N2CC(=O)N2CCCC2)cc1 (stereo unspecified)	1	2	-11

Reprinted at random: three entries already listed, in no set order.
SMILES	MT1-MMP act inh	MT1-MMP act inh RFP	Env fusion inh
O=C(NC1CCCCC1)C1c2ccccc2OCC(=O)N1C1CC1 (stereo unspecified)	2	0	-36
O=C1CCCCCC(=O)[C@H](O)C[C@H](c2ccccc2)O1	2	5	2
COc1ccc(N2CCN(C(=O)c3cc(S(=O)(=O)N4CCCCCC4)ccc3OC)CC2)cc1	-8	-5	-4
